Compound activity (PubChem)
Bm FixLJ act: increases Burkholderia fixLJ two-component signaling | B. multivorans fixK-promoter GFP reporter, 18 h; hits give high values | z-score (test concentration not listed) | 0.3% of 29,000 active;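 active = replicate mean overnight rise in green fluorescent reporter signal, 3 or more SD over negative controls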;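 also: score is relative to vehicle wells of the plate; 300 nL library stock went into each well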
The depositor's hits bear a star. The list is partial. The share of hits here may be higher or lower than overall.

What do the screens show for `CCOc1cc2sc(N3CCC(C(=O)Nc4ccc(C(C)C)cc4)CC3)nc2cc1Br`?
Bm FixLJ act: -1.5

What do the screens show for `Cc1c(CNC2CCCCCC2)c(C(=O)O)c(C)n1Cc1c(F)cccc1Cl`?
Bm FixLJ act: -1.8

How did COc1ccc2nc(SCC(O)c3cccc(Br)c3)[nH]c2c1 (configuration not stated) do in these assays?
Bm FixLJ act: -1.7

Results for Cc1ccccc1CC(=O)NC(c1ccc2c(c1)CCO2)C1CC(O)C1 (configuration not stated) ?
Bm FixLJ act: -1.1

How did O=C1CC(c2ccc(F)cc2)c2c(c3ccccc3oc2=O)O1 (configuration not stated) do in these assays?
Bm FixLJ act: -0.78

Results for Cc1ccccc1-n1c(=O)c2ccccc2n(Cc2ccc(F)cc2)c1=O ?
Bm FixLJ act: -2.3

Results for CCCCSc1ncnc2c1c(-c1ccccc1)cn2-c1cccc(F)c1 ?
Bm FixLJ act: 0.6

How did COc1ccc(CNC(=O)C2CCN(c3nnc(-n4cccc4CNc4ccc(C)cc4)s3)CC2)c(OC)c1 do in these assays?
Bm FixLJ act: -1.1

How did CCCCN1CCc2[nH]cnc2C12CCN(C(=O)c1cccc(F)c1)CC2 do in these assays?
Bm FixLJ act: -2.6

How did Cc1cc(CC2CN(C(=O)c3cc4cc(F)ccc4n3C)CC2O)n[nH]1 (configuration not stated) do in these assays?
Bm FixLJ act: -0.07

How did COc1ccc(C(NS(=O)(=O)c2cc(F)ccc2C)C2CC(O)C2)cn1 (configuration not stated) do in these assays?
Bm FixLJ act: 0.41

What do the screens show for `Cc1ccn2c(Nc3ccccc3C)c(-c3cccnc3)nc2c1`?
Bm FixLJ act: -1.7

What do the screens show for `Cc1ccc(CN(Cc2ccco2)C(=O)COc2ccc(C(C)C)cc2)cc1`?
Bm FixLJ act: 1.9

Results for CC(C)CN(CCCNC(=O)c1cc(-c2ccc(Br)s2)nc2ccccc12)CC(C)C ?
Bm FixLJ act: -0.75

Results for CCOC(=O)c1nc(Nc2ccc(C(C)=O)cc2)c2ccccc2n1 ?
Bm FixLJ act: -1.2

How did CCN(Cc1cnn(C)c1)C(=O)CC(=O)Nc1cccc(Cl)c1C do in these assays?
Bm FixLJ act: -3.6

What do the screens show for `COc1ccc(Oc2nc3c(c(=O)n(Cc4ccccc4Cl)c(=O)n3C)n2C)cc1`?
Bm FixLJ act: -0.95

Results for CCOc1ccc(NC(=O)[C@H]2O[C@@H]3OC(C)(C)O[C@@H]3[C@H]3OC(C)(C)O[C@H]32)cc1 ?
Bm FixLJ act: -1.3

How did O=C(c1ccc2c(c1)N(Cc1ccccc1F)C(=O)c1ccccc1S2(=O)=O)N1CCCCCC1 do in these assays?
Bm FixLJ act: -1.2

Results for CCN(CC)S(=O)(=O)c1ccc(NC(=O)[C@H](CCSC)N2Cc3ccccc3C2=O)cc1 ?
Bm FixLJ act: -0.35

How did CCOC(=O)c1ccccc1NC(=O)c1sc2ncn(CC)c(=O)c2c1C do in these assays?
Bm FixLJ act: -0.15

How did CCOC(=O)c1c(-c2ccc(OC)c(OC)c2)csc1NC(=O)c1ccc(C)cc1 do in these assays?
Bm FixLJ act: -2.4

Results for O=C(NCc1ccco1)c1ccc2c(c1)N(Cc1ccc(F)cc1)C(=O)c1ccccc1S2(=O)=O ?
Bm FixLJ act: 0.98

What do the screens show for `COc1ccc(C(=O)N(Cc2ccc(C(C)C)cc2)C2CCS(=O)(=O)C2)cc1` (configuration not stated)?
Bm FixLJ act: -2.3

Results for CCOc1ccccc1NC(=O)Cn1c(=O)n(-c2ccc(F)cc2)c(=O)c2c3c(sc21)CN(C(C)=O)CC3 ?
Bm FixLJ act: 0.83

What do the screens show for `O=C(Cn1ncn2c(cc3sccc32)c1=O)NCCc1ccccc1`?
Bm FixLJ act: -2.3

Results for CCCc1nc(CN(CC)C(=O)c2cc(=O)c3ccccc3[nH]2)no1 ?
Bm FixLJ act: 0.29

Results for COC(=O)c1c(C)nn(-c2ccc(F)cc2)c1-n1cccc1 ?
Bm FixLJ act: -1.2

Results for C=CCN(C)C(=O)Cn1c(Cc2ccccc2)nn(-c2ccc(OC)cc2)c1=O ?
Bm FixLJ act: -1.6

What do the screens show for `Cc1cc2c(cn1)CN(C(=O)c1cccc(Cn3nc(C)cc3C)c1)C2`?
Bm FixLJ act: 0.49

Compounds from the list above with a thiophene ring, fused or not:
Results for CC(C)CN(CCCNC(=O)c1cc(-c2ccc(Br)s2)nc2ccccc12)CC(C)C ?
Bm FixLJ act: -0.75

How did CCOC(=O)c1ccccc1NC(=O)c1sc2ncn(CC)c(=O)c2c1C do in these assays?
Bm FixLJ act: -0.15

How did CCOC(=O)c1c(-c2ccc(OC)c(OC)c2)csc1NC(=O)c1ccc(C)cc1 do in these assays?
Bm FixLJ act: -2.4

Results for CCOc1ccccc1NC(=O)Cn1c(=O)n(-c2ccc(F)cc2)c(=O)c2c3c(sc21)CN(C(C)=O)CC3 ?
Bm FixLJ act: 0.83

What do the screens show for `O=C(Cn1ncn2c(cc3sccc32)c1=O)NCCc1ccccc1`?
Bm FixLJ act: -2.3

(list continues)
What do the screens show for `O=C(CSc1ncc(-c2ccccc2)[nH]1)Nc1cccc(Br)c1`?
Bm FixLJ act: -0.64

Results for Cc1ccc(N(CC(=O)NCc2ccc(F)cc2)S(=O)(=O)c2c(C)nn(C)c2C)cc1 ?
Bm FixLJ act: -1.1

How did CCOc1ccc(CCNC(=O)c2ccc3c(c2)N(Cc2ccc(C)cc2)CCS3)cc1 do in these assays?
Bm FixLJ act: 0.11

Results for COc1ccc(S(=O)(=O)N(CCc2ccccc2)CC(=O)Nc2cc(C)cc(C)c2)cc1OC ?
Bm FixLJ act: 1.7

Results for COc1ccc(Br)cc1CN1C(=O)c2ccccc2C1C(=O)NC1CCCCCC1 (configuration not stated) ?
Bm FixLJ act: -3.7

Results for CCSCC(=O)NCCc1csc(-c2cnccn2)n1 ?
Bm FixLJ act: -2.2

How did O=C(CC1N=C2c3ccccc3N=C(SCC(=O)Nc3cccc(C(F)(F)F)c3)N2C1=O)NCc1cccs1 (configuration not stated) do in these assays?
Bm FixLJ act: -0.66

Results for CCOC(=O)C1CCCN(C(=O)Cn2ncc3c4ccccc4n(Cc4ccccc4)c3c2=O)C1 (configuration not stated) ?
Bm FixLJ act: -1.4

How did Cc1ccccc1Cn1c2ccccc2c2cnn(CC(=O)N3CCC(C)CC3)c(=O)c21 do in these assays?
Bm FixLJ act: -2.8

Results for CCOC(=O)c1nnn(CC(=O)NC(=O)Nc2ccccc2F)c1C(=O)OCC ?
Bm FixLJ act: -0.16

Results for O=C(NCCc1ccccc1)c1cc(-c2ccc(Cl)c(Cl)c2)on1 ?
Bm FixLJ act: -1

What do the screens show for `Cn1cc(Cl)c(C(=O)NC2CCC(NC(=O)CCC(F)(F)F)C2)n1` (configuration not stated)?
Bm FixLJ act: -0.61

Results for CC(C)COc1ccc(C(=O)N2CCCCC2CCN2CCCCC2)cc1 (configuration not stated) ?
Bm FixLJ act: -1.5

How did CCCN1CCC2(CC1)OCCc1cc(C(=O)N3CCCC3CO)sc12 (configuration not stated) do in these assays?
Bm FixLJ act: -0.8

How did COc1ccc(CN2C(=O)c3ccccc3C2C(=O)NCCc2ccccc2)c(OC)c1 (configuration not stated) do in these assays?
Bm FixLJ act: -1.6

What do the screens show for `Cc1c(NC(=O)Nc2ccc(F)c(Cl)c2)c(=O)n(-c2ccccc2)n1C`?
Bm FixLJ act: -1.3

How did NC(=O)NCC(=O)N1CCCC(c2nccn2CC2CCC2)C1 (configuration not stated) do in these assays?
Bm FixLJ act: -0.11

What do the screens show for `CCc1ccccc1NC(=O)c1cnn2c(C(F)(F)F)cc(-c3ccc(OC)c(OC)c3)nc12`?
Bm FixLJ act: -0.12

What do the screens show for `COc1ccccc1-c1cc(C(=O)N2CCN(c3ccccc3)CC2)no1`?
Bm FixLJ act: -0.51

What do the screens show for `O=C(CN1C(=O)C(c2ccc(F)cc2)=NC12CCCCCC2)Nc1ccc(F)c(Cl)c1`?
Bm FixLJ act: -1.5

What do the screens show for `COc1ccc(CCNC(=O)CN2C(=O)COc3ccc(S(=O)(=O)N4CCCC4)cc32)cc1OC`?
Bm FixLJ act: 0.2

Results for COCCn1cncc1CNC(=O)Nc1ccc(-n2nnnc2C)cc1 ?
Bm FixLJ act: -0.94

Results for CCCN(CCC)CC(O)Cn1cc(/C=C/C(=O)c2ccc(OC)cc2)c2ccccc21 (configuration not stated) ?
Bm FixLJ act: -3.8

Results for Cc1cccc(C)c1NC(=O)C1CCCN1S(=O)(=O)c1cccc2nsnc12 (configuration not stated) ?
Bm FixLJ act: -0.3

How did CC(C)C(=O)N1CCn2nc(CNC(=O)NCCc3ccccn3)cc2C1 do in these assays?
Bm FixLJ act: -1.9

How did O=C(NCCc1cn[nH]n1)c1sccc1S(=O)(=O)N1CCCC1 do in these assays?
Bm FixLJ act: -0.06

Results for CC(C)OC(=O)c1ccc(Cn2nnc3sc4c(c3c2=O)CCCC4)cc1 ?
Bm FixLJ act: -2.6

What do the screens show for `COc1ccc(C(Cl)=C(c2ccc(OC)cc2)c2ccc(OC)cc2)cc1`?
Bm FixLJ act: -0.88

How did CCOC(=O)c1cnc2ccc(OC)cc2c1Nc1ccc(OCc2ccccc2Cl)cc1 do in these assays?
Bm FixLJ act: 0.97

Results for Cc1cc(C)c(Cn2c3ccccc3c3cnn(CC(=O)NCCc4ccccc4)c(=O)c32)c(C)c1 ?
Bm FixLJ act: 2.5

What do the screens show for `O=C(NC(=O)c1ccc(F)cc1)Nc1ccc(-c2cc(C(F)(F)F)nn2-c2ccccc2)cc1`?
Bm FixLJ act: -3.5

Results for Cc1cccc(CSc2nc(-c3cccs3)ccc2C#N)c1 ?
Bm FixLJ act: -1.9

How did CCC(C(=O)N1CCN(c2ccc(OC)cc2)CC1)n1nc(C)n2c(cc3occc32)c1=O (configuration not stated) do in these assays?
Bm FixLJ act: -0.6

Results for CC(NC(=O)c1ccc2c(c1)N(Cc1ccc(Cl)cc1)C(=O)c1ccccc1S2(=O)=O)c1ccccc1 (configuration not stated) ?
Bm FixLJ act: -0.56

What do the screens show for `COC(C)(C)C(=O)Nc1ccc(NC(=O)CN(C)C)c(C)c1`?
Bm FixLJ act: -1.1

How did CCC(C(=O)NCc1ccccc1OC)n1nc(C)n2c(cc3occc32)c1=O (configuration not stated) do in these assays?
Bm FixLJ act: -2.8

Results for CCC1CCC(C(=O)NC(C(=O)Nc2cccc(OC)c2)C(C)C)CC1 (configuration not stated) ?
Bm FixLJ act: 0.24

What do the screens show for `COc1ccc(-c2cc(C(F)(F)F)c(C#N)c(SCC(=O)Nc3ccc(F)cc3)n2)cc1`?
Bm FixLJ act: -5.7

What do the screens show for `COc1ccccc1NC(=O)Cn1c(=O)n(-c2cccc(C(C)=O)c2)c(=O)c2c3c(sc21)CN(C(C)=O)CC3`?
Bm FixLJ act: -0.49

How did COC(=O)c1ccc(C(=O)OC)c(NC(=O)c2cnn3c(C(F)F)cc(-c4ccc(C)cc4)nc23)c1 do in these assays?
Bm FixLJ act: -0.04

What do the screens show for `CC[C@H](c1ccc(O)cc1)[C@@H](CC)c1ccc(O)cc1`?
Bm FixLJ act: -0.37

Results for CCN(CC)C(=O)Cn1c(=O)n(CCc2ccccc2)c(=O)c2ccccc21 ?
Bm FixLJ act: -1.3

What do the screens show for `COc1ccc(-c2[nH]ncc2C(=O)NCc2cccc(OC)c2)cc1`?
Bm FixLJ act: -1.5

Results for COc1cccc(C(=O)N2CCCC(c3nnc(CN(C)C)n3C)C2)c1O (configuration not stated) ?
Bm FixLJ act: -3.3

What do the screens show for `Cc1cc2oc(C(=O)N(Cc3ccc(N(C)C)cc3)CC3CCCO3)c(C)c2cc1C` (configuration not stated)?
Bm FixLJ act: 1.3

Entries shown so far that contain a cyano group (two):
Results for Cc1cccc(CSc2nc(-c3cccs3)ccc2C#N)c1 ?
Bm FixLJ act: -1.9

What do the screens show for `COc1ccc(-c2cc(C(F)(F)F)c(C#N)c(SCC(=O)Nc3ccc(F)cc3)n2)cc1`?
Bm FixLJ act: -5.7

Other structures.
Results for Cc1ccc(CCNC(=O)c2cc3c(s2)-c2c(C)cccc2OC3)cc1 ?
Bm FixLJ act: -1

What do the screens show for `O=C(NCCCN1CCN(c2ccccc2)CC1)c1cc2c(s1)-c1ccccc1OC2`?
Bm FixLJ act: -0.74

Results for CN(CCCNC(=O)c1cc2c(=O)n(C)c3ccccc3c2s1)Cc1ccccc1 ?
Bm FixLJ act: -0.54

What do the screens show for `CCOc1ccc(-c2cc(C(F)(F)F)c(C#N)c(SCC(=O)Nc3ccccc3)n2)cc1`?
Bm FixLJ act: -5

How did COc1ccc(NC(=O)c2nnn(Cc3nc(-c4cc(Br)ccc4OC)oc3C)c2C)cc1 do in these assays?
Bm FixLJ act: -0.3

How did CCOc1ccc(NC(=O)CSc2oc(-c3ccco3)nc2S(=O)(=O)c2ccc(Cl)cc2)cc1 do in these assays?
Bm FixLJ act: 0.24

How did COc1ccc(Nc2c3c(nc4ccc(NC(=O)/C=C/c5cccc(OC)c5OC)cc24)CCCC3)cc1OC do in these assays?
Bm FixLJ act: -0.81

Results for O=C(c1cc2ccccc2oc1=O)N1CCN(c2ccc(Cl)cc2)CC1 ?
Bm FixLJ act: -1.5

Results for CCCOC(=O)c1cccc(Nc2nc(C(=O)OCC)nc3ccccc23)c1 ?
Bm FixLJ act: -4.9

Results for CN(C)Cc1nnc(C2CCCN(c3cc(C(F)(F)F)ccn3)C2)n1C (configuration not stated) ?
Bm FixLJ act: -0.11

Results for CCN(C(=O)Cn1c(=O)n(Cc2ccc3c(c2)OCO3)c(=O)c2ccc(C(=O)NC3CCCCC3)cc21)c1cccc(C)c1 ?
Bm FixLJ act: 0.53

Results for O=C(CCc1ccncc1)N1CC2CCC(C1)N(Cc1ccccn1)C2=O (configuration not stated) ?
Bm FixLJ act: -0.28

What do the screens show for `CCC(NC(=O)c1ccc(-c2cnn(C)c2C(=O)OC)cc1)c1ccnn1C` (configuration not stated)?
Bm FixLJ act: 0.08

Results for CC1=C(C(=O)Nc2ccccc2)C(c2cccc(O)c2)n2nc(-c3ccccc3Cl)nc2N1 (configuration not stated) ?
Bm FixLJ act: -2.4
